NOMO-1 viab: STK33 inhibitor candidate reducing NOMO-1 cell viability; 37,000 tested, 7.5% active; AID 2330; NOMO-1 AML viability, CellTiter-Glo luminescence, 72 h; inhibition, % (concentration not given with the values);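 active = most replicates above 80%; inconclusive = exactly half above 80%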;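 note: wells of about 30 µL received 25 nL stock; 0% = median of vehicle wells and 100% = reference inhibitor level; the first replicate is given; inactives centre near 10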
An asterisk follows results filed as active; ? = inconclusive. This is a subset, so the mix of outcomes need not match the whole.

SMILES | NOMO-1 viab
Cc1ccccc1OC(C)C(=O)Nc1ccccc1C(N)=O (stereo unspecified) | 48
CC(C)NC(=O)N(C)C[C@H]1Oc2ccc(NC(=O)CCCN(C)C)cc2C(=O)N([C@@H](C)CO)C[C@@H]1C | -15
C[C@H](CO)N1C[C@H](C)[C@@H](CN(C)C(=O)Nc2ccccc2)Oc2ccc(NS(=O)(=O)c3cccs3)cc2C1=O | 23
CC(=O)c1cccc(NC(=O)CN(C2CCCCC2)S(=O)(=O)c2ccccc2)c1 | 27
O=C(Nc1ccc(I)cc1C(=O)NCCN1CCOCC1)c1ccco1 | -4
Cc1ccc(S(=O)(=O)Nc2ccc3c(c2)C(=O)N([C@H](C)CO)C[C@H](C)[C@@H](CN(C)C(=O)Nc2ccccc2)O3)cc1 | 16
CC(C)N(C(=O)Cn1c(-c2ccco2)nc2ccccc21)c1ccccc1 | 24
COc1ccc(OC)c(N(CC(=O)Nc2ccc(I)cc2C)S(C)(=O)=O)c1 | 14
CCN(CC(=O)Nc1ccc(C(F)(F)F)cc1)S(=O)(=O)c1ccc2ccccc2c1 | 0
C[C@H]1CN([C@@H](C)CO)C(=O)Cc2cc(NS(=O)(=O)c3cccs3)ccc2O[C@H]1CN(C)Cc1ccc2c(c1)OCO2 | -17
C[C@H](CO)N1C[C@H](C)[C@@H](CN(C)S(=O)(=O)c2ccccc2)Oc2ccc(NC(=O)Nc3ccc(F)cc3)cc2C1=O | 18
C[C@H]1CN([C@@H](C)CO)C(=O)c2cccc(NC(=O)c3ccc(-c4nccs4)cc3)c2O[C@@H]1CN(C)Cc1ccc(C(=O)O)cc1 | 8
C[C@@H]1CN([C@H](C)CO)C(=O)c2cccc(NC(=O)Nc3ccc(C(F)(F)F)cc3)c2O[C@@H]1CN(C)C | 11
C[n+]1cc(-c2ccc3ccccc3n2)cc2ccccc21 | ?
CC(=O)Nc1ccc(NC(=O)COc2ccccc2C(=O)Nc2cccc(Cl)c2Cl)cc1 | -4
COc1ccc(Cn2c(-c3nonc3NC(C)=O)nc3ccccc32)cc1 | 45
Cc1ccc(-n2c(SCC(=O)Nc3ccc(Cl)cc3C)nnc2-c2ccccc2)cc1 | 4
C[C@@H]1CN([C@@H](C)CO)C(=O)c2cc(NC(=O)Nc3ccc(C(F)(F)F)cc3)ccc2O[C@H]1CN(C)S(C)(=O)=O | 12
C[C@@H]1CN([C@@H](C)CO)C(=O)c2cc(NS(=O)(=O)c3cn(C)cn3)ccc2O[C@@H]1CN(C)S(=O)(=O)c1ccc(Cl)cc1 | 3
COc1ccc(NC(=O)N(C)C[C@@H]2Oc3ccc(NC(=O)Nc4ccc(F)cc4)cc3CC(=O)N([C@H](C)CO)C[C@H]2C)cc1 | 25
Cc1ccccc1Cn1nc(C)c(NC(=O)C2CC(c3cccc(Br)c3)=NO2)c1C (stereo unspecified) | 6
C[C@H]1CN([C@@H](C)CO)C(=O)c2cc(NC(=O)Nc3ccc4c(c3)OCO4)ccc2O[C@H]1CN(C)Cc1ccc(C(=O)Nc2ccccc2N)cc1 | 40
CC(C)NC(=O)N(C)C[C@@H]1Oc2ccc(NC(=O)Cc3cn(C)c4ccccc34)cc2C(=O)N([C@H](C)CO)C[C@H]1C | 10
COc1ccc(S(=O)(=O)N(C)C[C@@H]2Oc3c(NS(C)(=O)=O)cccc3C(=O)N([C@H](C)CO)C[C@@H]2C)cc1 | 5
CNC(=O)Nc1cccc(-c2cc(-c3c(Cl)cccc3Cl)no2)c1 | 32
C[C@@H]1CN([C@@H](C)CO)C(=O)Cc2cc(NC(=O)NC3CCCCC3)ccc2O[C@@H]1CN(C)S(=O)(=O)c1ccc(Cl)cc1 | 28
COc1ccc(NC(=O)N(C)C[C@@H]2Oc3ccc(NC(=O)C4CC4)cc3C(=O)N([C@@H](C)CO)C[C@@H]2C)cc1 | 10
CC(C)NC(=O)N(C)C[C@H]1Oc2ccc(NC(=O)CCCN(C)C)cc2C(=O)N([C@H](C)CO)C[C@@H]1C | 25
O=C(CSc1n[nH]c(-c2ccccc2Cl)n1)c1ccc(O)c(O)c1 | 73
C[C@@H]1CN([C@@H](C)CO)C(=O)c2cccc(NC(=O)c3ccc(-c4nccs4)cc3)c2O[C@H]1CN(C)S(=O)(=O)c1ccccc1 | -3
COc1ccc(NC(=O)Nc2ccc3c(c2)C(=O)N([C@H](C)CO)C[C@H](C)[C@@H](CN(C)C(=O)Nc2c(C)noc2C)OCCCC[C@@H](C)O3)cc1 | -2
Cc1noc(C)c1NC(=O)N(C)C[C@@H]1Oc2ccc(NC(=O)C3CCCCC3)cc2C(=O)N([C@@H](C)CO)C[C@H]1C | 9
COC(=O)CCCCC(=O)c1[nH]c(=O)[nH]c1C | -4
C[C@H](CO)N1C[C@H](C)[C@@H](CN(C)CC2CCCCC2)Oc2ccc(NS(=O)(=O)c3cccs3)cc2C1=O | -11
Cc1ccc(-c2nnc(SCC(=O)Nc3ccc4c(c3)oc3ccccc34)n2C)c(Cl)c1 | 54
C[C@H](CO)N1C[C@H](C)[C@H](CN(C)C(=O)Nc2ccc3c(c2)OCO3)Oc2c(NC(=O)C3CCCCC3)cccc2C1=O | 32
C[C@H](CO)N1C[C@H](C)[C@H](CN(C)C(=O)Nc2ccccc2)Oc2ccc(NC(=O)C3CC3)cc2C1=O | 20
Cc1ccc2nc(S/C=C/C(=O)c3ccccc3)[nH]c2c1 | 123*
O=C(CSc1nnc(-c2ccc(Br)cc2)o1)Nc1ccccc1Cl | 12
Cc1noc(C)c1S(=O)(=O)Nc1ccc2c(c1)CC(=O)N([C@H](C)CO)C[C@@H](C)[C@@H](CN(C)Cc1ccncc1)O2 | -4
C[C@H](CO)N1C[C@H](C)[C@@H](CN(C)S(=O)(=O)c2ccccc2)Oc2c(NC(=O)C3CCOCC3)cccc2C1=O | 29
Cc1noc(C)c1NC(=O)Nc1cccc2c1O[C@H](CN(C)S(=O)(=O)c1cn(C)cn1)[C@@H](C)CN([C@H](C)CO)C2=O | 5
O=C(NCc1ccccn1)c1cnn2c1NC(c1cccs1)CC2C(F)(F)F (stereo unspecified) | 1
Cc1ccc(S(=O)(=O)N(C)C[C@H]2Oc3ccc(NS(=O)(=O)c4ccc(Cl)cc4)cc3CC(=O)N([C@H](C)CO)C[C@H]2C)cc1 | 32
CS(=O)(=NS(=O)(=O)c1cccs1)c1ccc(OC(=O)c2ccc(Cl)cc2)cc1 (stereo unspecified) | 26
CNC[C@@H]1Oc2ccc(NS(=O)(=O)c3cccs3)cc2CC(=O)N([C@@H](C)CO)C[C@@H]1C | 6
Cc1ccc(C(C)C)c(OCc2ccc(N)cc2)c1 | 11
O=C(CN1C(=O)COc2ccc(Cl)cc21)Nc1ccc(N2CCOCC2)cc1 | 16
O=C1CC(CSc2nnnn2-c2ccccc2)=NN1 | 16
C[C@@H]1CN([C@H](C)CO)C(=O)c2cccc(NC(=O)c3cnccn3)c2O[C@@H]1CN(C)S(=O)(=O)c1cn(C)cn1 | 12
CCn1c(SCC(=O)Nc2cccc(Br)c2)nnc1-c1ccc(C)cc1 | 34
C[C@H](CO)N1C[C@H](C)[C@H](CN(C)Cc2ccc(C(=O)Nc3ccccc3N)cc2)Oc2ccc(NC(=O)Cc3ccccc3)cc2C1=O | 104*
C[C@H](CO)N1C[C@H](C)[C@@H](CN(C)C(=O)Nc2ccc3c(c2)OCO3)Oc2c(NC(=O)CCCCCC(=O)Nc3ccccc3N)cccc2C1=O | 11
Cc1ccc(S(=O)(=O)NC2=NCN(CCN3CCOCC3)CN2)cc1 | 11
C[C@@H]1CN([C@@H](C)CO)C(=O)c2cc(NC(=O)Nc3ccc(C(F)(F)F)cc3)ccc2O[C@@H]1CN(C)S(=O)(=O)c1ccccc1 | 90*
C[C@@H]1CN([C@H](C)CO)C(=O)Cc2cc(NS(=O)(=O)c3cccs3)ccc2O[C@@H]1CN(C)C(=O)Nc1ccc(C(F)(F)F)cc1 | 3
C[C@@H]1CN([C@H](C)CO)C(=O)c2cc(NS(C)(=O)=O)ccc2O[C@@H]1CN(C)Cc1ccc(Oc2ccccc2)cc1 | 51
COc1cc2c(cc1NC(=S)NCc1ccco1)oc1ccccc12 | 93*
Cc1ccc(Cl)cc1NC(=O)CSc1nc2c(c(C(F)(F)F)c1C#N)CCCC2 | 28
COc1ccc(CN(C)C[C@H]2Oc3c(NC(=O)c4ccc(-c5nccs5)cc4)cccc3C(=O)N([C@H](C)CO)C[C@H]2C)cc1 | 17

In another format: entries from further up
| smiles | NOMO-1 viab |
| --- | --- |
| C[C@@H]1CN([C@H](C)CO)C(=O)c2cccc(NC(=O)c3cnccn3)c2O[C@@H]1CN(C)S(=O)(=O)c1cn(C)cn1 | 12 |
| CCn1c(SCC(=O)Nc2cccc(Br)c2)nnc1-c1ccc(C)cc1 | 34 |
| C[C@H](CO)N1C[C@H](C)[C@H](CN(C)Cc2ccc(C(=O)Nc3ccccc3N)cc2)Oc2ccc(NC(=O)Cc3ccccc3)cc2C1=O | 104* |

(continued)
SMILES | NOMO-1 viab
C[C@H](CO)N1C[C@H](C)[C@H](CN(C)Cc2ccncc2)Oc2ccc(NS(=O)(=O)c3cccs3)cc2CC1=O | 16
CCN(CC)c1nc(Nc2ccccc2)nc(Oc2ccc(=O)[nH]n2)n1 | 34
O=C1c2ccccc2C(=O)N1C(CO)C(O)c1ccccc1 (stereo unspecified) | 25
Cc1ccc(S(=O)(=O)N(C)C[C@H]2Oc3ccc(NC(=O)CCN4CCOCC4)cc3C(=O)N([C@@H](C)CO)C[C@@H]2C)cc1 | -11
C[C@@H]1CCCCO[C@H](CN(C)C(=O)Nc2ccccc2)[C@@H](C)CN([C@H](C)CO)C(=O)c2cc(NC(=O)CCC(F)(F)F)ccc2O1 | 16
C[C@H]1CN([C@@H](C)CO)C(=O)c2cc(NC(=O)CCN3CCOCC3)ccc2O[C@H]1CN(C)Cc1ccc(C(=O)O)cc1 | 17
C[C@@H]1CN([C@H](C)CO)C(=O)c2cccc(NC(=O)c3ccc(-c4nccs4)cc3)c2O[C@@H]1CN(C)S(=O)(=O)c1ccc(F)cc1 | 19
Cc1noc(C)c1S(=O)(=O)Nc1cccc2c1O[C@H](CN(C)C)[C@H](C)CN([C@H](C)CO)C2=O | -4
C[C@H](CO)N1C[C@H](C)[C@H](CN(C)C(=O)Nc2ccc3c(c2)OCO3)Oc2ccc(N(C)C)cc2C1=O | -6
C[C@@H]1CN([C@H](C)CO)C(=O)Cc2cc(NC(=O)Nc3ccccc3)ccc2O[C@H]1CN(C)S(=O)(=O)c1ccc(F)cc1 | 17
C[C@@H]1CCCCO[C@@H](CN(C)CC2CC2)[C@@H](C)CN([C@H](C)CO)C(=O)c2cc(NC(=O)c3ccccc3)ccc2O1 | ?
C[C@@H]1CN([C@H](C)CO)C(=O)Cc2cc(NC(=O)Nc3ccc4c(c3)OCO4)ccc2O[C@H]1CN(C)S(=O)(=O)c1ccc(Cl)cc1 | 4
Cc1ccc(S(=O)(=O)N(C)C[C@H]2Oc3ccc(NS(=O)(=O)c4c(C)noc4C)cc3C(=O)N([C@H](C)CO)C[C@@H]2C)cc1 | 28
NC1=NN(c2ccccc2)C(=O)C1 | 24
C[C@@H]1CCCCO[C@H](CN(C)S(=O)(=O)c2ccc(Cl)cc2)[C@@H](C)CN([C@H](C)CO)C(=O)c2cc(NC(=O)CCC(F)(F)F)ccc2O1 | 14

Ordered by length of the SMILES (falling): 6 of the compounds above.
SMILES | NOMO-1 viab
C[C@@H]1CCCCO[C@H](CN(C)S(=O)(=O)c2ccc(Cl)cc2)[C@@H](C)CN([C@H](C)CO)C(=O)c2cc(NC(=O)CCC(F)(F)F)ccc2O1 | 14
C[C@@H]1CN([C@H](C)CO)C(=O)c2cccc(NC(=O)c3ccc(-c4nccs4)cc3)c2O[C@@H]1CN(C)S(=O)(=O)c1ccc(F)cc1 | 19
Cc1ccc(S(=O)(=O)N(C)C[C@H]2Oc3ccc(NC(=O)CCN4CCOCC4)cc3C(=O)N([C@@H](C)CO)C[C@@H]2C)cc1 | -11
C[C@@H]1CN([C@H](C)CO)C(=O)Cc2cc(NC(=O)Nc3ccccc3)ccc2O[C@H]1CN(C)S(=O)(=O)c1ccc(F)cc1 | 17
C[C@H](CO)N1C[C@H](C)[C@H](CN(C)Cc2ccncc2)Oc2ccc(NS(=O)(=O)c3cccs3)cc2CC1=O | 16
CCN(CC)c1nc(Nc2ccccc2)nc(Oc2ccc(=O)[nH]n2)n1 | 34

Other results:
SMILES | NOMO-1 viab
COc1cc(NC(=O)COc2ccc(Cl)cc2Cl)ccc1NC(=O)c1ccccc1Cl | 39
C[C@@H]1CN([C@H](C)CO)C(=O)c2cc(NS(=O)(=O)c3ccc(Cl)cc3)ccc2O[C@@H]1CN(C)C(=O)Nc1cccc2ccccc12 | 6
Cc1ccc(S(=O)(=O)N(C)C[C@H]2OCCCC[C@@H](C)Oc3ccc(NC(=O)NC(C)C)cc3C(=O)N([C@H](C)CO)C[C@@H]2C)cc1 | 19
C[C@H]1CN([C@@H](C)CO)C(=O)Cc2cc(NC(=O)Nc3ccc(C(F)(F)F)cc3)ccc2O[C@H]1CN(C)C | 1
CC(C)NC(=O)N(C)C[C@H]1Oc2c(cccc2N(C)C)C(=O)N([C@H](C)CO)C[C@@H]1C | -11
C[C@H]1CN([C@@H](C)CO)C(=O)c2cc(NC(=O)C3CCCCC3)ccc2O[C@@H]1CN(C)S(=O)(=O)c1ccccc1 | -9
Cc1noc(C)c1NC(=O)N(C)C[C@@H]1OCCCC[C@@H](C)Oc2ccc(NC(=O)NC3CCCCC3)cc2C(=O)N([C@H](C)CO)C[C@@H]1C | 7
COC(=O)Cc1c(C)nc2nc(COc3ccccc3)[nH]n2c1=O | 10
C[C@H](CO)N1C[C@H](C)[C@@H](CN(C)S(=O)(=O)c2cccs2)Oc2ccc(NC(=O)Cn3cnnn3)cc2C1=O | 5
CCOC(=O)c1c(NC(=O)Cn2cc([N+](=O)[O-])cn2)sc2c1CCC2 | 21
C[C@@H]1CN([C@H](C)CO)C(=O)Cc2cc(NC(=O)CCC(F)(F)F)ccc2O[C@@H]1CN(C)C(=O)NC1CCCCC1 | -8
Cc1ccc(-c2nnc(SCC(=O)Nc3ccccc3F)n2C)cc1 | 2
C[C@@H]1CN([C@H](C)CO)C(=O)Cc2cc(NS(=O)(=O)c3ccccc3)ccc2O[C@H]1CN(C)S(=O)(=O)c1ccc(Cl)cc1 | -7
